T cruzi repl: inhibitors of intracellular T. cruzi growth, primary screen, luminescence, NIH3T3 host cells; T. cruzi beta-gal in NIH3T3, 90 h; inhibition, % (no concentration beside the values); 300,000 tested, 1.4% active;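 active means mean inhibition across valid replicates above about 55%, limit read from the data; inconclusive means mean below that limit but half or more replicates reach it; inactive means mean below it, under half of replicates reach it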;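 further: signal also drops with host cell toxicity which is not excluded here; 0% = plate median of DMSO wells and 100% = zero luminescence signal; higher percent means less beta-gal luminescence so fewer parasites; stock transfer was 50 nL into about 50 µL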
rRNA inh HTS: reduced GFP signal of wild-type E. coli, primary screen, bacterial rRNA inhibitor project, GFP/RFP fluorescence, OD600, single point | GFP signal change (wild-type ribosome), % (no concentration beside the values) | E. coli WT GFP vs humanized-ribosome RFP mutants, 24 h; stronger effect = lower value; DMSO median 0, no signal -100 | AID 720706, 2013 | 350,000 tested, 1.6% active;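 active means significant combined selectivity score with lowered wild-type GFP, culture density cut under 30%, mutant RFP and density less affected; inactive means any of these conditions unmet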; further: one replicate is shown; some compounds called inactive have numbers as strong as hits
UCH37 DUB inh: inhibitors of human UCH37 deubiquitinase, primary screen, biochemical, Ub-AMC cleavage, fluorescence | purified proteasome/UCH37 | 330,000 tested, 0.33% active | Ubiquitin carboxyl-terminal hydrolase isozyme L5 (Homo sapiens), Q9Y5K5 | inhibition, % (concentration not given with the values);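 active means mean of two replicates above 20%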;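 further: 0% = compound-free wells with enzyme and 100% = wells lacking proteasome; stock transfer was 100 nL into about 20 µL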
Target sequence (Q9Y5K5 whole entry, looked up): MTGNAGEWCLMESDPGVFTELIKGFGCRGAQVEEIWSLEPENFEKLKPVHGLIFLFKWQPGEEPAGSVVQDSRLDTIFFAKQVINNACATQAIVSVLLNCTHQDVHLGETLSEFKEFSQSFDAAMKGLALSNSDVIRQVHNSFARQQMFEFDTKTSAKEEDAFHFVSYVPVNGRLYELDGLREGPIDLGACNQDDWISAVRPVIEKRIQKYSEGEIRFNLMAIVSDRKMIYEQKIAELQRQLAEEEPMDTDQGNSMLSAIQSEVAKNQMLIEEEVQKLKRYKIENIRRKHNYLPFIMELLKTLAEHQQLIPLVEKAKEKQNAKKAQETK
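Schedule: 30 min plus 25 min, room temperature / Material: human UCH37 within purified proteasomes / Technique: AMC fluorescence intensity at 355/460 nm / Buffer or medium: pH 7.4 Tris-HCl (50 mM) with ovalbumin, ATP-MgCl2, DTT / Controls: wells without proteasome as full block, compound-free enzyme plus substrate as uninhibited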
MLL AF4-AF9 inh: inhibitors of AF4 peptide binding to AF9, primary screen, biochemical, AlphaScreen, biotin-AF4 peptide, FLAG-AF9, single point; inhibition, % at 10 µM; AID 651704, 2012; 350,000 tested, 0.47% active; Protein AF-9 (Homo sapiens), P42568;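 active means every replicate reaching a set inhibition limit, whatever the replicate mean, cut at about 25% in these data; inconclusive means mean inhibition reaches that limit but some replicates miss it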;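 further: 0% = plate neutral control median and 100% = total signal loss; the record names both 10 and 1 µM as test concentration; the first replicate is given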
Target sequence (P42568 whole entry, looked up): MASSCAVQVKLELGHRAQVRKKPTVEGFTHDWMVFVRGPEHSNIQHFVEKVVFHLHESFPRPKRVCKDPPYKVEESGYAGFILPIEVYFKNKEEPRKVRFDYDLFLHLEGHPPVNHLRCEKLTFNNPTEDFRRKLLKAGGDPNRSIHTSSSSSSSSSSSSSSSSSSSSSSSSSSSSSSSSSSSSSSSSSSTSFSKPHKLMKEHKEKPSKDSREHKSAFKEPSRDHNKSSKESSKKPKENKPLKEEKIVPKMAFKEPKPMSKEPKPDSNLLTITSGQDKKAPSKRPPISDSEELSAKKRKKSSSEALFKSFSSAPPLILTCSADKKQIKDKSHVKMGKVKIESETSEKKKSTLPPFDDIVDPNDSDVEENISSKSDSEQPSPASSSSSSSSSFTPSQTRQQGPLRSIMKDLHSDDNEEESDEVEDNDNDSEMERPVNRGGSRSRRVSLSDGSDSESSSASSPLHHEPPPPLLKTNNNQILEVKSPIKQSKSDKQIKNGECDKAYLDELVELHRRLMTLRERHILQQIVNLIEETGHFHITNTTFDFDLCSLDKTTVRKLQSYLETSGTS
E coli growth: E. coli growth inhibition, primary screen, OD600; Escherichia coli growth, 23 h; stronger effect = lower value; OD600 absorbance (concentration not given with the values); 330,000 tested, 0.21% active;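 active means OD600 absorbance below the run mean of sample wells minus 3.6 SD, in any replicate, cut at about 0.56 in these data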;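 further: stock transfer was 300 nL into about 60 µL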
Beta apoptosis: inhibitors of cytokine-induced beta cell apoptosis, primary screen, luminescence; protection from apoptosis, % (no concentration beside the values); INS-1E cytokine-induced death, ATP luminescence, 48 h; percent of positive-control rescue, neutral wells zero; 300,000 tested, 0.8% active;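 active means all replicates at 75% or more, or half of them and the mean; inconclusive means half reach 75% but not the mean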;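 further: 0% = cytokine-treated negative control wells and 100% = positive control rescue; higher means more ATP so stronger rescue from cytokine killing; wells of about 40 µL received 100 nL stock; the first replicate is given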
FGF22 binding: binders of human FGF22 protein, primary screen, FGF22 synaptogenesis inhibitor project, biophysical, thermal shift, single point; Fibroblast growth factor 22 (Homo sapiens), Q9HCT0; recombinant FGF22 thermal shift, SYPRO orange fluorescence; percent of sucrose octasulfate shift, DMSO zero; calls only at 9.99 µM; 340,000 tested, 1.5% active; AID 651658, 2012;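 active means melting point raised past a set limit in the mean and every replicate; inconclusive means no clear call; three in four hits are not shown here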
A1 inh: caspase 3/7 activation in MEF A1-2A-BIM cells, primary screen, A1 inhibitor project, cell-based, luminescence, HTS. Caspase-Glo 3/7 luminescence, 3 h; percent of clofoctol response, vehicle zero. caspase activation, % (no concentration beside the values). 330,000 tested, 0.066% active. AID 2462, 2010;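 active means over half of replicate activation scores above 10%, or exactly half above 10 with the replicate mean above 10; inconclusive means replicate mean below 10 yet half the replicates above 10; inactive means over half of replicates below 10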;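 further: wells of about 30 µL received 50 nL stock; many hits fall short of the cut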
rRNA inh HTS OD600: further read-out of rRNA inh HTS, marked with its call; OD600 change, %; measured here: OD600 growth;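 optical density of the mix in the first replicate; 0 = DMSO median and -100 = no signal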
rRNA inh HTS RFP: recorded beside rRNA inh HTS, whose call it bears; RFP signal change, %; measured here: RFP humanized mutant strains;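 first replicate; 0 = DMSO median and -100 = no signal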
* marks the source's active call; other numbers are inactive results. This is a subset (hit frequency here may not be typical).

What do the screens show for `Cc1ccccc1C(=O)NCC(=O)N1CCN(c2ccccn2)CC1`?
rRNA inh HTS: 2.1; UCH37 DUB inh: -3.5; MLL AF4-AF9 inh: -0.3; E coli growth: 0.599; Beta apoptosis: -6.2; FGF22 binding: inactive; A1 inh: 0.2; rRNA inh HTS OD600: 10.4; rRNA inh HTS RFP: -1.7

Results for O=C(Nc1nnc(C(F)(F)F)s1)c1cccnc1 ?
UCH37 DUB inh: 2.2; E coli growth: 0.687; Beta apoptosis: 3.2; A1 inh: -5.6

What do the screens show for `O=C(NCCc1nc2ccccc2[nH]1)/C(=C/c1ccco1)NC(=O)c1ccc(Br)o1`?
T cruzi repl: -7.7; rRNA inh HTS: 23.9; UCH37 DUB inh: 1.6; MLL AF4-AF9 inh: 2.9; E coli growth: 0.714; Beta apoptosis: 4.5; FGF22 binding: inactive; A1 inh: inconclusive; rRNA inh HTS OD600: 2.3; rRNA inh HTS RFP: 2.7

How did O=C(CCC1CCCN(Cc2cccc3c2OCO3)C1)NCc1ccc(F)c(F)c1 (stereo not given) do in these assays?
T cruzi repl: 62.1*; rRNA inh HTS: -0.6; UCH37 DUB inh: 0.4; MLL AF4-AF9 inh: -0.2; E coli growth: 0.655; Beta apoptosis: -4.5; FGF22 binding: inactive; A1 inh: 1.2; rRNA inh HTS OD600: 0.3; rRNA inh HTS RFP: -2.2

Results for O=C(NCC(c1ccco1)N1CCc2ccccc2C1)C(=O)Nc1ccccc1 (stereo not given) ?
T cruzi repl: 14.4; rRNA inh HTS: -0.2; UCH37 DUB inh: 1.9; MLL AF4-AF9 inh: -2.2; E coli growth: 0.6; Beta apoptosis: 8.6; FGF22 binding: inactive; A1 inh: 0.0; rRNA inh HTS OD600: 6.4; rRNA inh HTS RFP: -0.9

How did COc1ccc(CN2CCN(Cc3ccco3)CC2)cc1OC do in these assays?
T cruzi repl: 29.4; rRNA inh HTS: 10.4; UCH37 DUB inh: 4.0; MLL AF4-AF9 inh: -0.8; E coli growth: 0.664; Beta apoptosis: -1.5; FGF22 binding: inactive; A1 inh: 0.2; rRNA inh HTS OD600: 8.6; rRNA inh HTS RFP: 2.2

Results for O=C(CCCN1C(=O)c2ccccc2C1=O)NCCCn1ccnc1 ?
T cruzi repl: 0.3; rRNA inh HTS: 18.2; UCH37 DUB inh: 5.5; MLL AF4-AF9 inh: -2.3; E coli growth: 0.69; Beta apoptosis: 0.7; FGF22 binding: inactive; A1 inh: 0.0; rRNA inh HTS OD600: 11.6; rRNA inh HTS RFP: -0.7

How did COc1ccccc1C(c1c(N)n(C)c(=O)n(C)c1=O)C(C)[N+](=O)[O-] (stereo not given) do in these assays?
T cruzi repl: -18.1; rRNA inh HTS: 13.0; UCH37 DUB inh: 0.7; MLL AF4-AF9 inh: -0.4; E coli growth: 0.68; Beta apoptosis: -2.0; FGF22 binding: inactive; A1 inh: 0.4; rRNA inh HTS OD600: 7.2; rRNA inh HTS RFP: -2.7

What do the screens show for `COc1ccc(OC)c(S(=O)(=O)NCC(c2cccs2)N2CCc3ccccc3C2)c1` (stereo not given)?
T cruzi repl: 20.5; rRNA inh HTS: -1.0; UCH37 DUB inh: 0.8; MLL AF4-AF9 inh: -0.6; E coli growth: 0.719; Beta apoptosis: 4.5; FGF22 binding: inactive; A1 inh: 0.6; rRNA inh HTS OD600: -7.8; rRNA inh HTS RFP: 1.1

How did CCOC(=O)c1cccc(NC(=O)C2CCCN(c3nnc(N4CCCC4=O)s3)C2)c1 (stereo not given) do in these assays?
T cruzi repl: 14.1; rRNA inh HTS: -2.6; UCH37 DUB inh: 2.3; MLL AF4-AF9 inh: 0.8; E coli growth: 0.668; Beta apoptosis: 0.8; FGF22 binding: inactive; A1 inh: -0.6; rRNA inh HTS OD600: 1.8; rRNA inh HTS RFP: -2.3

What do the screens show for `O=C(c1sc2cc(F)ccc2c1Cl)N1CCN(c2cccc(Cl)c2)CC1`?
T cruzi repl: -14.5; rRNA inh HTS: 4.4; UCH37 DUB inh: -3.0; MLL AF4-AF9 inh: 5.9; E coli growth: 0.711; Beta apoptosis: 0.0; FGF22 binding: inactive; A1 inh: -0.1; rRNA inh HTS OD600: -4.7; rRNA inh HTS RFP: 0.9

What do the screens show for `CCOC(=O)C1CCN(Cc2ccc(C(=O)OC)cc2)CC1`?
T cruzi repl: -3.3; rRNA inh HTS: 10.4; UCH37 DUB inh: 1.5; MLL AF4-AF9 inh: 7.0; E coli growth: 0.654; Beta apoptosis: -0.5; FGF22 binding: inactive; A1 inh: 0.5; rRNA inh HTS OD600: -0.3; rRNA inh HTS RFP: -9.4

What do the screens show for `CC1=NN(c2ccccc2)C(=O)C1/C=C1/NC(=S)NC1=O` (stereo not given)?
T cruzi repl: -2.0; rRNA inh HTS: 16.6; UCH37 DUB inh: 6.2; MLL AF4-AF9 inh: 2.0; E coli growth: 0.66; Beta apoptosis: 3.5; FGF22 binding: inactive; A1 inh: -0.4; rRNA inh HTS OD600: 16.9; rRNA inh HTS RFP: 3.4

Results for COc1ccc(-c2c(C)n([O-])c(C)c(C)[n+]2=O)cc1OC ?
T cruzi repl: -3.0; UCH37 DUB inh: 2.2; E coli growth: 0.693; Beta apoptosis: -3.7; A1 inh: -0.1

How did CCN(CC)C1CCN(Cc2cn[nH]c2-c2ccc(OC)c(F)c2)C1 (stereo not given) do in these assays?
T cruzi repl: -27.3; rRNA inh HTS: 12.5; UCH37 DUB inh: 2.5; MLL AF4-AF9 inh: 6.0; E coli growth: 0.708; Beta apoptosis: -3.3; FGF22 binding: inactive; A1 inh: 1.3; rRNA inh HTS OD600: 2.5; rRNA inh HTS RFP: 1.8

Results for CC(=O)NCCN=C(C)c1sc2ccccc2c1O ?
T cruzi repl: -8.1; UCH37 DUB inh: 3.3; E coli growth: 0.784; Beta apoptosis: 5.4; A1 inh: 0.9

How did CC1(C)Cc2c(sc(NC(=O)COc3ccc(Cl)cc3)c2C#N)C(C)(C)N1 do in these assays?
T cruzi repl: 7.4; UCH37 DUB inh: 6.5; E coli growth: 0.693; Beta apoptosis: -1.0; A1 inh: 0.0

What do the screens show for `N#Cc1ccc(-c2ccc3c(c2)OCO3)nc1SCC(=O)OCc1ccccc1`?
T cruzi repl: 0.7; UCH37 DUB inh: -283.6; E coli growth: 0.715; Beta apoptosis: 1.7; A1 inh: 0.3

How did COc1cccc(N2CC(C(=O)Nc3nnc(SCC(=O)Nc4ccc(NC(C)=O)cc4)s3)CC2=O)c1 (stereo not given) do in these assays?
T cruzi repl: -1.0; rRNA inh HTS: 6.0; UCH37 DUB inh: -0.3; MLL AF4-AF9 inh: -0.1; E coli growth: 0.72; Beta apoptosis: -4.2; FGF22 binding: inactive; A1 inh: 0.0; rRNA inh HTS OD600: 9.2; rRNA inh HTS RFP: -1.6

Results for COc1ccc(NC(=O)CCS(=O)(=O)c2cccc3nonc23)cc1Cl ?
T cruzi repl: -0.6; rRNA inh HTS: 2.8; UCH37 DUB inh: -2.5; MLL AF4-AF9 inh: -0.7; E coli growth: 0.645; Beta apoptosis: -8.2; FGF22 binding: inactive; A1 inh: 1.0; rRNA inh HTS OD600: 2.7; rRNA inh HTS RFP: 0.1

What do the screens show for `Cc1ccccc1C(=O)N1CCC(C(=O)Nc2ccccn2)CC1`?
T cruzi repl: 0.3; rRNA inh HTS: 6.4; UCH37 DUB inh: 0.4; MLL AF4-AF9 inh: -0.7; E coli growth: 0.652; Beta apoptosis: -0.4; FGF22 binding: inactive; A1 inh: 0.2; rRNA inh HTS OD600: 20.2; rRNA inh HTS RFP: -0.9

Results for O=C(Nc1ccc2c(c1)CCC2)c1ccc(Br)s1 ?
T cruzi repl: 6.7; rRNA inh HTS: -3.2; UCH37 DUB inh: 2.9; MLL AF4-AF9 inh: -0.5; E coli growth: 0.683; FGF22 binding: inactive; A1 inh: -2.6; rRNA inh HTS OD600: -13.1; rRNA inh HTS RFP: -0.1

Results for CN1CCN(c2cc(C(F)(F)F)nc3ccc(F)cc23)CC1 ?
T cruzi repl: 16.9; UCH37 DUB inh: 5.2; MLL AF4-AF9 inh: -0.5; E coli growth: 0.671; Beta apoptosis: 2.1; FGF22 binding: inactive; A1 inh: -0.5

What do the screens show for `CCOc1ccc(N(CC(=O)Nc2cccc(F)c2)S(=O)(=O)c2c(C)noc2C)cc1`?
T cruzi repl: 9.5; rRNA inh HTS: 0.7; UCH37 DUB inh: 5.1; MLL AF4-AF9 inh: 6.0; E coli growth: 0.681; FGF22 binding: inactive; A1 inh: -1.1; rRNA inh HTS OD600: -2.1; rRNA inh HTS RFP: 3.6

How did CC(C)NC(=O)CSc1nc(-c2cccs2)cc(-c2ccccc2)c1C#N do in these assays?
T cruzi repl: 11.9; UCH37 DUB inh: -250.6; E coli growth: 0.719; Beta apoptosis: 4.2; A1 inh: 0.8

What do the screens show for `Cc1cc(CNCc2c(C(=O)N(C)Cc3ccccc3)nc3ccccn23)nn1C`?
T cruzi repl: 0.6; rRNA inh HTS: 9.6; UCH37 DUB inh: 0.4; MLL AF4-AF9 inh: -0.8; E coli growth: 0.654; Beta apoptosis: 2.0; FGF22 binding: inactive; A1 inh: -0.3; rRNA inh HTS OD600: 2.6; rRNA inh HTS RFP: -2.1

What do the screens show for `COc1ccc2c(CC(=O)OCC(=O)Nc3cccc(S(N)(=O)=O)c3)coc2c1`?
T cruzi repl: -0.6; rRNA inh HTS: -3.0; UCH37 DUB inh: -2.2; MLL AF4-AF9 inh: inconclusive; E coli growth: 0.707; Beta apoptosis: 0.7; FGF22 binding: inactive; A1 inh: 0.1; rRNA inh HTS OD600: -6.1; rRNA inh HTS RFP: 4.5

What do the screens show for `CCN(C(=O)c1cnc(NC(C)C)cc1C(F)(F)F)c1ccc(Cl)cc1`?
T cruzi repl: 21.3; rRNA inh HTS: -23.9; UCH37 DUB inh: -3.3; MLL AF4-AF9 inh: 1.8; E coli growth: 0.699; FGF22 binding: inactive; A1 inh: 0.2; rRNA inh HTS OD600: -30.2; rRNA inh HTS RFP: 1.4
